gsp agonist: activates gsp, the McCune-Albright syndrome mutation. gsp mutant cells, cAMP HTRF, 30 min; control for the full effect not named in the record. Potency, µM (series often up to 76.9 µM), inactives show at the top dose activation (cAMP increase), actives largely listed as activators. 0.13% of 340,000 active. AID 624287; active = well fitted activation curve with a large enough effect; inconclusive = small, poorly fitted or top-dose-only effect, or another doubt; inactive = no such curve, though single readings can be large or run the other way; cell line not stated here;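 note: phosphodiesterase inhibitor Ro 20-1724 added with compounds to block cAMP breakdown; potency is the fitted concentration of half-maximal effect; nearly all actives have a fitted effect of over 60% in size; about a fifth of the inactives were tested at one dose only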
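Cells stably selected in G418 were plated at 2000/well, grown 16-24 hr, then given compounds in DMSO with the PDE inhibitor […] (300 uM solution added) for 30 min at 37C; cAMP was read by HTRF.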
Six1-Eya2 inh: inhibitors of human Six1/Eya2 interaction; Q15475+O00167; AlphaScreen GST-Six1/His-Eya2 binding, biochemical; active compounds read low; control for the full effect not named in the record; activity change, % (test concentration not listed); 0.56% of 360,000 active; AID 651725; in the data active = activity change below about -65%; inconclusive = about -30% to -65%; inactive = above about -30%; note: % is set by controls: 0 for no effect and ±100 for the full control effect
Target sequence (O00167 whole entry, looked up): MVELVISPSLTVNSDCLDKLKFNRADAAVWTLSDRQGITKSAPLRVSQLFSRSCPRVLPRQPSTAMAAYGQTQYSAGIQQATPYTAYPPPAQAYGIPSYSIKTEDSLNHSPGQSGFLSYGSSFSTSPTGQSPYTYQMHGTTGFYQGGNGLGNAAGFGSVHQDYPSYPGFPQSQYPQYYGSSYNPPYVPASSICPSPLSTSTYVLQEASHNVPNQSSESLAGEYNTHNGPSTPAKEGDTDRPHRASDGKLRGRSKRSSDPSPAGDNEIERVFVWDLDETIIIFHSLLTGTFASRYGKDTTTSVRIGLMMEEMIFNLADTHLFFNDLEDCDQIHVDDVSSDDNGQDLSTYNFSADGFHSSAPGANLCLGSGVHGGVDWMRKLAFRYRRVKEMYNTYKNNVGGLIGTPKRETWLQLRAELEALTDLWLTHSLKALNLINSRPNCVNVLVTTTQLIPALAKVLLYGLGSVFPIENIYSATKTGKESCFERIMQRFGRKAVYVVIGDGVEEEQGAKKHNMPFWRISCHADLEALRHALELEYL
Target sequence (Q15475 whole entry, looked up): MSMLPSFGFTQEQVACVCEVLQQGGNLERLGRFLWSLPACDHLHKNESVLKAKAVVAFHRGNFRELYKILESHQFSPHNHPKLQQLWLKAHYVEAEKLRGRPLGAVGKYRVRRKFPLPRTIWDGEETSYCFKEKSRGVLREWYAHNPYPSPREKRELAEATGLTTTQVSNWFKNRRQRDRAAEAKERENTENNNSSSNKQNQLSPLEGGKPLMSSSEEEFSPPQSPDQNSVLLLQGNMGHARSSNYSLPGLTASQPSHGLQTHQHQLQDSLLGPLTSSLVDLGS
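AlphaScreen with GST-Six1 and His-Eya2 (5X mix: 250 nM and 500 nM), glutathione donor and nickel acceptor beads; buffer 50 mM Tris pH 8.0, 300 mM NaCl, 1 mM TCEP; 1 h at 37 C in the dark.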
gsp antagonist: gsp mutant antagonism; gsp-mutant cells, cAMP HTRF, 30 min; control for the full effect not named in the record; Potency, µM (highest dose often 76.9 µM), without a hit: top-dose activity change, negative = inhibition, actives largely listed as inhibitors; 0.4% of 340,000 active; AID 624288; active = falling curve of any shape with a large fitted effect; inconclusive = falling curve, mostly with a smaller effect; inactive = flat or rising curve; cell line not stated here;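 note: intracellular cAMP measured with PDE inhibitor Ro 20-1724 present during compound exposure; potency is the fitted concentration of half-maximal effect; % is set by controls: 0 for no effect and ±100 for the full control effect; nearly all actives have a fitted effect of over 65% in size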
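HTRF cAMP measurement after 30 min RT detection following 30 min, 37C compound treatment alongside […] (added as 300 uM solution) in G418-selected cells seeded at 2000/well and grown 16–24 h.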
D2 PAM: potentiates the human D2 dopamine receptor allosterically; DiscoveRx D2 beta-arrestin cells, luminescence, 90 min; 100% = 57 uM dopamine signal; 0.23% of 360,000 active; P14416; potentiation, % (no concentration beside the values); active = potentiation of 50% or more; inconclusive = 30% to 50%; inactive = 30% or less;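 note: compound concentration not given in the record; tested on top of an EC20 dose of dopamine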
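D2 cells co-treated with compound plus 50 nM dopamine (EC20) for 90 min at 37 deg C to detect potentiation. Beta-arrestin recruitment was read as enzyme-fragment luminescence after 1 h at ambient temperature. Full response was set by 57 uM dopamine.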
D2 ag: activates the human D2 dopamine receptor. P14416. DiscoveRx PathHunter D2 beta-arrestin, luminescence, 90 min; 100% = 57 uM dopamine signal. activation, % (test concentration not listed). 0.084% of 360,000 active. AID 624465; in the data active = activation above about 40%; inconclusive = about 15% to 40%; inactive = below about 15%; note: compound concentration not given in the record; the text of the record calls up to 30% inactive
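DiscoveRx PathHunter D2 beta-arrestin cells (2,100/well) attached overnight, then compound-stimulated 90 min at 37 C in HBSS/10 mM HEPES/0.1% Tween-20 buffer; beta-galactosidase complementation read by luminescence after 1 h at ambient temperature. Dopamine 57 uM final (EC100) as control.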
CtBP-E1A blk: inhibitors of CtBP/E1A interaction; AlphaScreen GST-E1A/His-CtBP binding, 1536-well; active compounds read low; control for the full effect not named in the record; activity change, % (no concentration beside the values); 0.49% of 340,000 active; AID 651724; in the data active means activity change below about -65%; inconclusive means about -30% to -65%; inactive means above about -30%; note: % is set by controls: 0 for no effect and ±100 for the full control effect
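GST-E1A and His-tagged CtBP (125 nM each as 5X stock) were preincubated with pin-transferred compound for 2 h at 37 °C in the dark, then glutathione donor and nickel acceptor beads were added for 1 h before AlphaScreen reading.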
* = called active by the depositor; ? = inconclusive; · = not tested or not shown; [ ] = remark or other dose.

SMILES	gsp agonist	Six1-Eya2 inh	gsp antagonist	D2 PAM	D2 ag	CtBP-E1A blk
CCCS(=O)(=O)NC(=O)C1(C)CCCN(C(=O)c2cccs2)C1 (stereo not drawn)	·	6	·	-6	-2.5	13
O=C(N=Nc1c(O)[nH]c2ccc([N+](=O)[O-])cc12)c1ccccc1[N+](=O)[O-]	-23%	-17	-26%	-23	-8.2	·
CC(C)C1Cc2[nH]c(=S)[nH]c(=O)c2C(c2ccc(F)cc2)O1 (stereo not drawn)	·	4	·	-10	-4.3	-1
Cc1ccc2sc(N(CCCN(C)C)C(=O)c3ccc(S(=O)(=O)N(C)C)cc3)nc2c1C	?	-5	7%	-7	-4.3	-13
CCOc1ccc(N(C)C(=O)CCc2nnc3ccc(N4CCCCC4)nn23)cc1	56%	1	19%	-4	-3.1	0
Cc1cccc(NC(=O)c2cc([N+](=O)[O-])ccc2Cl)c1O	6%[15.4 µM]	-6	-3%	26	1.6	-2
CCC(CC)COC(=O)C(C#N)c1nc2ccccc2nc1N1CCOCC1 (stereo not drawn)	-2%	-1	-5%	-16	-3.4	-5
Cc1cc(C)c2sc(N(CCN(C)C)C(=O)c3c(F)cccc3F)nc2c1	?	-11	-3%	-21	-5.8	-23
Cn1c(=O)[nH]c(=O)c2c1nc(N/N=C/c1cccnc1)n2Cc1ccc(Cl)cc1	9%[15.4 µM]	-1	13%	-14	1.0	-10
CN(CC(=O)Nc1ccc(N2CCOCC2)cc1)C(=O)C1CCCC1	-4%	10	3%	-5	-1.6	8
Cc1cccc(CCNS(=O)(=O)c2cnc[nH]2)c1	-5%[15.4 µM]	6	13%	-10	-3.2	10
O=C(NCCN1CCOCC1)C1CC(=O)N(c2ccc(F)cc2)C1 (stereo not drawn)	?	-2	10%	-2	-3.0	-14
Cc1cccc(N2C(=O)CC(N3CCC(c4nc5ccccc5[nH]4)CC3)C2=O)c1 (stereo not drawn)	?	4	1%	3	-2.8	0
C=CCSc1nc(C)c(CCC(C)C)c(=O)[nH]1	?	1	9%	-4	1.4	·
CN1CCN(CC(=O)Nc2ccccc2Oc2ccccc2)CC1	-5%	7	2%	-19	-6.6	·

Among those listed so far, these have a nitro group on carbon.
SMILES	gsp agonist	Six1-Eya2 inh	gsp antagonist	D2 PAM	D2 ag	CtBP-E1A blk
O=C(N=Nc1c(O)[nH]c2ccc([N+](=O)[O-])cc12)c1ccccc1[N+](=O)[O-]	-23%	-17	-26%	-23	-8.2	·
Cc1cccc(NC(=O)c2cc([N+](=O)[O-])ccc2Cl)c1O	6%[15.4 µM]	-6	-3%	26	1.6	-2

New compounds follow
SMILES	gsp agonist	Six1-Eya2 inh	gsp antagonist	D2 PAM	D2 ag	CtBP-E1A blk
CSc1ccccc1NC(=O)COC(=O)c1cnc(C)cn1	6%	4	7%	-4	2.3	-4
COc1ccc(NC(=O)C2CC(c3ccc(Cl)cc3)=NO2)cc1OC (stereo not drawn)	-52%[inhibitor]	-5	-5%	-3	0.1	4
CCCCN1CC(COCc2ccccc2)Oc2ccccc2S1(=O)=O (stereo not drawn)	·	19	-17%	-4	-3.1	21
CC(NC(=O)c1cccs1)c1nnc(SCc2ccc(Cl)cc2Cl)n1C (stereo not drawn)	-5%	-4	3%	-15	-3.1	-9
CCOC(=O)Cc1nnc(Nc2cccc(C)c2)c2ccccc12	3%	-5	-14%	-9	-4.7	3
O=S(=O)(Nc1ccccn1)c1ccc(C2CCCCC2)cc1	-58%[inhibitor]	-11	3%	3	-1.3	-6
O=C(CSc1ncn[nH]1)c1cccc([N+](=O)[O-])c1	3%[15.4 µM]	6	4%	-6	-3.4	-11
O=C(c1ccccc1Cl)N1CCN(c2ccccn2)CC1	6%	2	5%	4	-4.4	3
Cc1ccc(S(=O)(=O)/N=C(/Nc2ccc([N+](=O)[O-])cc2)c2ccccc2)cc1	-14%	?	?	-17	-3.2	-15
Cc1ccc(S(=O)(=O)N2CCN(S(=O)(=O)N3CCOCC3)CC2)cc1	7%	3	13%	0	-1.8	-19
C=CC[n+]1c(-c2ccc(C)cc2)csc1Nc1c(C)n(C)n(-c2ccccc2)c1=O	0%[15.4 µM]	-7	-6%	-14	-0.8	-6
Cc1ccccc1OCc1nnc(SCC(=O)Nc2c(C)n(C)n(-c3ccccc3)c2=O)n1-c1ccccc1	12%[15.4 µM]	0	-11%	-10	-4.4	4
CCN(CC)CCn1c(=S)[nH]c2cc(C(=O)N3CC(C)CC(C)C3)ccc2c1=O (stereo not drawn)	?	3	13%	-9	-2.2	1
Cn1nnnc1SCC(=O)c1ccc2c(c1)OCCO2	0%[15.4 µM]	0	10%	0	-2.8	7
Cn1nc(-c2ccc(Cl)cc2)c2cc(C(=O)N3CCN(C(=O)c4ccco4)CC3)sc21	16%	3	-5%	-4	-1.0	4
CC1(C)CC(=O)C2=C(C1)N(c1ccccc1)C(N)=C(C#N)C2c1ccccc1 (stereo not drawn)	3%	10	-10%	-20	-3.2	-1
CC1CCN(C(=O)C2CCN(S(=O)(=O)N3CCC4(CC3)OCCO4)CC2)CC1	-10%	6	3%	-3	0.8	12
CCN1C(=O)CC(c2ccco2)Sc2ccccc21 (stereo not drawn)	?	0	2%	2	-0.4	-8
Cc1cc(C)nc(NC(=NCCc2c[nH]c3ccccc23)NC(=O)c2ccco2)n1	-3%	-10	-17%	25	-0.2	4
O=C(CCN1CCN(c2ccccc2)CC1)N/N=C/c1ccc(O)c(O)c1O	15%	?	2%	7	11	?
COc1ccccc1N1CCN(C(=O)C(NS(=O)(=O)c2cccs2)c2ccccc2)CC1 (stereo not drawn)	-5%	-5	?	-6	0.8	-9
COc1ccc(-c2cc(CNc3nc(NCc4ccccc4OC)nc4ccsc34)on2)cc1	·	-2	·	-20	-4.6	-9
C#CCOCCOCCOCCNc1nc(N2CCN(C(=O)[C@H](CCCCN)n3cc(CN)nn3)CC2)nc(N2CCN(C(=O)[C@H](CCC(=O)O)n3cc([C@@H](N)CCCCN)nn3)CC2)n1	·	-15	9%	-5	-2.4	-14
COC(=O)Cc1c(C)c2ccc(OCC(=O)N(C)C3CCS(=O)(=O)C3)cc2oc1=O (stereo not drawn)	?	-6	13%	-11	-8.1	-14
C[C@@H]1CN([C@@H](C)CO)C(=O)c2cccc(NC(=O)C3CCOCC3)c2O[C@H]1CN(C)S(=O)(=O)c1ccc(Cl)cc1	·	-2	1%	-4	0.3	-13
O=C(CN1C(=O)S/C(=C\c2ccccc2Cl)C1=O)NCCCn1ccnc1	-34%	-6	-4%	-4	-0.7	?
CC(=O)Nc1ccccc1-c1nnn(CC(=O)Nc2ccc3c(c2)OCCO3)n1	11%[15.4 µM]	-1	?	-4	-3.3	5
CCOC(=O)c1c(NC(=O)CCN2CCOCC2)sc2c1CC(C)(C)OC2	-16%	12	-1%	-16	-2.4	-7
OCCC1CN(C/C(Cl)=C/c2ccccc2)CCN1C1CCCC1 (stereo not drawn)	0%[15.4 µM]	-1	·	-32	-2.9	0
COc1cccc(C(=O)NNC(=O)C(=O)Nc2ccc(C)cc2)c1	-119%[inhibitor]	6	-7%	-9	-3.0	-3

An excerpt of these results, bar-delimited.
Molecule | gsp agonist | Six1-Eya2 inh | gsp antagonist | D2 PAM | D2 ag | CtBP-E1A blk
COc1ccc(-c2cc(CNc3nc(NCc4ccccc4OC)nc4ccsc34)on2)cc1 | · | -2 | · | -20 | -4.6 | -9
C#CCOCCOCCOCCNc1nc(N2CCN(C(=O)[C@H](CCCCN)n3cc(CN)nn3)CC2)nc(N2CCN(C(=O)[C@H](CCC(=O)O)n3cc([C@@H](N)CCCCN)nn3)CC2)n1 | · | -15 | 9% | -5 | -2.4 | -14

Next part:
SMILES	gsp agonist	Six1-Eya2 inh	gsp antagonist	D2 PAM	D2 ag	CtBP-E1A blk
N#Cc1nnn(-c2cc(Cl)cc(Cl)c2)c1N	?	0	3%	1	8.5	1
COc1c(C(=O)NNC(=O)c2ccccc2Cl)csc1Br	-1%[15.4 µM]	-14	10%	-3	-3.9	8
O=C(CSc1nnc(CNc2ccc(F)cc2)n1Cc1ccco1)N1CCOCC1	-17%	7	-9%	-7	-1.0	3
COc1ccc(CC(=O)NCc2nnc(SCc3ccc(C)cc3)n2C)cc1	-27%	3	10%	4	-2.7	-4
O=C(Nc1ccccc1Cl)Nc1cccc2cccnc12	-36%[inhibitor]	-4	-15%	-2	-3.5	11
Cc1ccc(C(=O)N/C(=C\c2ccc(-c3ccccc3[N+](=O)[O-])o2)C(=O)NCCCN2CCOCC2)cc1	21%	-12	-14%	-24	7.5	-26
CC(C)OC(=O)c1ccc(COC(=O)CNC(=O)c2ccco2)cc1	22%	16	1%	-6	-2.6	3
COc1ccc(C(=O)Nc2ccc3c(c2)nc(CCNC(C)=O)n3C)cc1	-48%[inhibitor]	-1	-3%	12	5.4	7
COc1ccc(NC(=O)c2cc3ccccc3oc2=O)cc1	-11%	3	·	-5	-3.9	4
O=C(Cc1c(O)c2ccccc2[nH]c1=O)NC1CCCCCC1	-4%	1	-5%	-9	-4.0	0
Cc1cccc(CC2(O)C(=O)Nc3ccccc32)n1 (stereo not drawn)	5%	5	1%	-17	4.6	0
CC(C)n1cc(CN2CCC(Oc3ccc(C(=O)N4CCCCC4)cc3)CC2)cn1	8%	11	5%	-17	-0.1	-6
CCOC(=O)C1CCN(Cc2nc3ccc(Cl)cc3n2CCO)CC1	13%	1	10%	-16	-1.9	-3
COc1ccccc1NC(=O)c1cc(S(=O)(=O)N2CCCC2)cn1C	-2%	0	2%	-1	-0.2	0
S=C(NC1CCCCC1)N1CCn2cccc2C1c1cccnc1 (stereo not drawn)	23%[15.4 µM]	0	-7%	-5	-8.0	-12
CCOC(=O)CSc1ncc(-c2ccccc2)cn1	7%	11	-24%	-8	-2.4	8
O=C(Nn1cnnc1)c1ccc(Br)s1	5%	-3	5%	8	-0.8	6
COc1cccc(C2CC(c3cccs3)=NN2S(C)(=O)=O)c1 (stereo not drawn)	-8%[15.4 µM]	5	-13%	-2	-4.5	·
C[C@@H]1C=CC(=O)O[C@@H]1c1ccc(Cl)cc1	·	2	6%	-1	1.6	-23
O=C(OCC(=O)N1CCN(S(=O)(=O)c2ccc(Cl)cc2)CC1)C1CCC1	11%	9	13%	-9	-1.5	-17
CC(=O)Nc1cc[n+](C(C)C(=O)c2ccc(Br)cc2)cc1 (stereo not drawn)	4%[15.4 µM]	2	·	-25	-3.8	12
O=C(CSc1nnc(C2CC2)n1C1CC1)c1cc(F)ccc1F	-12%[15.4 µM]	9	0%	-26	0.8	-5
CC(/C=C1\SC(=S)N(CCC(=O)Nc2cccc(C(=O)O)c2)C1=O)=C\c1ccccc1	-38%[inhibitor]	2	-8%	-8	-2.2	-1
COc1ccc(NC(=O)CN2CCN(CC(=O)Nc3ccccc3F)CC2)cc1OC	-2%	-2	3%	2	0.0	-3
O=C(Nc1ccccc1)N1CCOCC1	-43%[inhibitor]	6	8%	8	-0.2	-10
N=c1sccn1CC(=O)Nc1cccc(S(=O)(=O)N2CCCCCC2)c1	-9%	1	-1%	-11	-2.5	·
Cc1ccc(NC(C)c2cc(Cl)ccc2O)cc1 (stereo not drawn)	26%	-16	-12%	5	1.2	-14
NS(=O)(=O)c1ccc(NC(=O)c2cc(-c3cccs3)nc3ccccc23)cc1	0%	-3	-18%	-11	0.9	3
